Screens: PubChem, National Center for Advancing Translational Sciences (NCATS)
nsP2pro inh: Primary qHTS for inhibitors of NSP2Pro chikungunya virus (CHIKV); Polyprotein P1234 (Chikungunya virus (strain S27-African prototype)), Q8JUX6; FRET peptide cleavage, nsP2pro, fluorescence 1 h; Potency, µM (series often up to 24.9 µM), without a hit: at the highest dose activity change, negative = inhibition, most hits filed as inhibitors; 31,000 tested, 1.1% active; active means well fitted inhibition curve with a large enough effect; inconclusive means small, poorly fitted or top-dose-only effect; inactive means no such curve, though single readings can be large or run the other way; also: nearly all actives have a fitted effect of over 60% in size; a reference inhibitor and vehicle were the controls
Target sequence (Q8JUX6 whole entry, looked up): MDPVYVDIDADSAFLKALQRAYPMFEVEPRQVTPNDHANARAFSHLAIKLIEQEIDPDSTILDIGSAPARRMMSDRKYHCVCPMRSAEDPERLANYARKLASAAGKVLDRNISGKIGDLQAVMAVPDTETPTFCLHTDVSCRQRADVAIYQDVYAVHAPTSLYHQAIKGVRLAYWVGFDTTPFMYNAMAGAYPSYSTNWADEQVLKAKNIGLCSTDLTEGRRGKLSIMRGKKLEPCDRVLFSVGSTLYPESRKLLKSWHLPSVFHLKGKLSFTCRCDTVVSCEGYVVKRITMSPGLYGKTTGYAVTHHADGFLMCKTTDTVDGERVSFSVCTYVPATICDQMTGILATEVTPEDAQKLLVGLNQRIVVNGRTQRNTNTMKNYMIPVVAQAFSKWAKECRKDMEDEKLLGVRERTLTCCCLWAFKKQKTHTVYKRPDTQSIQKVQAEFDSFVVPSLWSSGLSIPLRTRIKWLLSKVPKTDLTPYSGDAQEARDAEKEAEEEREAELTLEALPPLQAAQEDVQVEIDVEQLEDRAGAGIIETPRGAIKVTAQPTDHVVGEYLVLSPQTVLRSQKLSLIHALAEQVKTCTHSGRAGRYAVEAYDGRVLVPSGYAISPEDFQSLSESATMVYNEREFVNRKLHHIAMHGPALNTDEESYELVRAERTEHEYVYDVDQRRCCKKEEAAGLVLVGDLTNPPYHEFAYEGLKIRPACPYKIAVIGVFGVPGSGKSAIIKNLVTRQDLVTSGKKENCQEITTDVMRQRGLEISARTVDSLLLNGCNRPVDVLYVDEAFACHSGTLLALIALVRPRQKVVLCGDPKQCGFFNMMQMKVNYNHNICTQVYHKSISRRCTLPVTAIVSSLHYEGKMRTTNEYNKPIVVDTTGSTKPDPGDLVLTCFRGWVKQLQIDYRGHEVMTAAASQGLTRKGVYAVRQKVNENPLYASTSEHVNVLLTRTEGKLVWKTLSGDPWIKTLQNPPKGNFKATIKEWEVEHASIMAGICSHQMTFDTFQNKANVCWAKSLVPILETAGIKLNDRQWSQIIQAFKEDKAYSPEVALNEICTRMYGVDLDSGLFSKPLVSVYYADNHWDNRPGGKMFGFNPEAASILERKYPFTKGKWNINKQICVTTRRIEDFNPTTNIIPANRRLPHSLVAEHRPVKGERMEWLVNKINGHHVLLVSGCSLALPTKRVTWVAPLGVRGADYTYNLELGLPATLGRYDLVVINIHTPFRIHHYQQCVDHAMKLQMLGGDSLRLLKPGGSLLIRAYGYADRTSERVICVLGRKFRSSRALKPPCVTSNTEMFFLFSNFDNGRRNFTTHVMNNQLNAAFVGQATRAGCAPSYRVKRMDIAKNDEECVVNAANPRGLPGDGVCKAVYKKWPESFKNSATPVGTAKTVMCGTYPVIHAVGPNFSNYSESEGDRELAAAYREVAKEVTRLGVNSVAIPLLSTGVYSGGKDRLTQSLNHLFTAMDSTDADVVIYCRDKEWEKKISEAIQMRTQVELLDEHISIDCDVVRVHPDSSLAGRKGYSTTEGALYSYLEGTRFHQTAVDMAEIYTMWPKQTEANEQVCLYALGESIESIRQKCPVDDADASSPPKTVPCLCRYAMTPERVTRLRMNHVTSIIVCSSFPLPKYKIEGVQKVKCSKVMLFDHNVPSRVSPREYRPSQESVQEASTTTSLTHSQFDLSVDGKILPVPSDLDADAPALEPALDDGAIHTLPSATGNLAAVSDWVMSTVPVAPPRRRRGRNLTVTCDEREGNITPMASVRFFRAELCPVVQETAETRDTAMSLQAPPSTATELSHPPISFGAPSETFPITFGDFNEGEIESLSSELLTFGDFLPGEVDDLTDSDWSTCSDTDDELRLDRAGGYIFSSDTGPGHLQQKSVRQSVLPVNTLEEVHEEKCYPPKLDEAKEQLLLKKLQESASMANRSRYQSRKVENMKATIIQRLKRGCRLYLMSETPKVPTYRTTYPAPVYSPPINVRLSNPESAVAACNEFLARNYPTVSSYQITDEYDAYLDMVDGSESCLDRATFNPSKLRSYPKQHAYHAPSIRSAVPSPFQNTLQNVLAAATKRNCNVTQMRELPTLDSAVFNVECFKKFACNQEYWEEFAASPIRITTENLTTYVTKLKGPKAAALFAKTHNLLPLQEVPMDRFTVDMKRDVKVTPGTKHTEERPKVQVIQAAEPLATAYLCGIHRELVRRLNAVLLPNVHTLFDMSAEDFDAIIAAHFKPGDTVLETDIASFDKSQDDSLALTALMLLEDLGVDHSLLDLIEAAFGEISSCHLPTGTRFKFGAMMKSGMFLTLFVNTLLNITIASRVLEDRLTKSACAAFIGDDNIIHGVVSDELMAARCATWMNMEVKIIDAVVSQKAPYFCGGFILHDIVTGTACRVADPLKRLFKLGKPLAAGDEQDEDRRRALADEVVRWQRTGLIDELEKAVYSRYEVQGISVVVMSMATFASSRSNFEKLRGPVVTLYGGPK
Active calls of the source: *; i = inactive; ? = inconclusive; & = joins results of further samples; [ ] = remark or other dose. % is scaled to controls: 0 for no effect and ±100 for the full control effect; potency is read from the fitted curve at half-maximal effect. Not all compounds are listed; rates above refer to the full screens.

SMILES	nsP2pro inh
CC#CC(=O)N1CCC[C@H]1c1nc(-c2ccc(C(=O)Nc3ccccn3)cc2)c2c(N)nccn12	39.5%[activator][10 µM]
COc1ccccc1N1CCN(S(=O)(=O)c2c(C)nc3sccn3c2=O)CC1	-13.6%
C[N+]1(C)CCCC(OC(=O)C(O)(c2ccccc2)c2ccccc2)C1 (stereo not drawn)	1.8%
Cc1ccc2nc(-c3ccc(Cl)c(NC(=O)c4ccc(Br)o4)c3)oc2c1	-7.0%
Cc1cc(C)c2c(N3CCCC(OCc4cccnc4)C3)ncnc2n1 (stereo not drawn)	4.5%
Cc1csc2nc(COc3ccc(NC(=O)c4ccccc4F)cc3)cc(=O)n12	-5.8%
COc1ccc(CNCC2(CO)C[C@@H](O)[C@@H](O)C2)cc1 (stereo partly drawn)	-12.4%[39.2 µM]
CCNC(=O)N1CCCN(c2ccc(C(=O)NCCc3ccc(Cl)cc3Cl)cc2NC(=O)c2cccc(Cl)c2)CC1	0.2%
OC[C@H]1O[C@H](O)[C@H](O)[C@@H](O)[C@@H]1O	-11.0%&6.1%&-1.5%
CC(C)(C)c1cc(C(=O)/C(C#N)=N/Nc2cccc(Cl)c2)no1	39.2%[activator]
O=C1CCc2cc(Cl)c(S(=O)(=O)Nc3ccc(Cl)c(Cl)c3)cc2N1	i
COc1ccc([S+](=O)([O-])N2CCN([S+](=O)([O-])c3ccc4c(c3)OCCO4)CC2)c(OC)c1	0.8%
COc1ccc2c(C(=O)c3ccc(Cl)cc3)c(C)n(CC(=O)O)c2c1	-17.8%
Cc1cccc(OCC(=O)N2CCN(CCc3ccccn3)CC2)c1	-16.7%
Cc1ccc(CN2CCc3nc(N4CCN(c5ccccc5F)CC4)ncc3C2)s1	-18.5%
CC(C)NC(=O)[C@@H]1C[C@@H](N)CN1C(=O)c1cccc2ccccc12	0.5%
CCCn1c(CCC(=O)Nc2cccc(C)c2C)nc2cccnc21	-10.7%
COc1cc(Cl)c(C)cc1NC(=O)Cn1c(C)c2cnn(-c3ccccc3)c(=O)c2c1C	-13.9%
COc1ccc(NC(=O)C(c2ccc(C)cc2)N(C)C(=O)/C=C\c2ccc3c(c2)OCO3)cc1 (stereo not drawn)	-11.1%
Cc1csc(CN(C)C(=O)CC(c2ccccc2)c2ccc3c(c2)OCO3)n1 (stereo not drawn)	-3.1%
CC(=O)Nc1ccc(S(=O)(=O)NCCS(=O)(=O)N2CCN(c3ccccc3F)CC2)cc1	-17.5%
COc1ccc(Cc2nc3ccc(C(=O)NCCc4ccc(OC)c(OC)c4)cc3o2)cc1	-9.1%
O=C(NC1CC(=O)N(c2cccc(F)c2)C1)c1ccc2c(c1)OCO2 (stereo not drawn)	-9.5%
COc1cccc(-n2cc(C(=O)NCCc3cccc(C)c3)c3ccccc3c2=O)c1	-20.2%
COc1ccc(N2CCN(S(=O)(=O)c3ccc4c(c3)C(C(C)C)C(=O)N4)CC2)cc1 (stereo not drawn)	-21.2%

Compounds shown so far that contain a Cl atom (six):
SMILES	nsP2pro inh
Cc1ccc2nc(-c3ccc(Cl)c(NC(=O)c4ccc(Br)o4)c3)oc2c1	-7.0%
CCNC(=O)N1CCCN(c2ccc(C(=O)NCCc3ccc(Cl)cc3Cl)cc2NC(=O)c2cccc(Cl)c2)CC1	0.2%
CC(C)(C)c1cc(C(=O)/C(C#N)=N/Nc2cccc(Cl)c2)no1	39.2%[activator]
O=C1CCc2cc(Cl)c(S(=O)(=O)Nc3ccc(Cl)c(Cl)c3)cc2N1	i
COc1ccc2c(C(=O)c3ccc(Cl)cc3)c(C)n(CC(=O)O)c2c1	-17.8%
COc1cc(Cl)c(C)cc1NC(=O)Cn1c(C)c2cnn(-c3ccccc3)c(=O)c2c1C	-13.9%

The list goes on:
SMILES	nsP2pro inh
COc1ccccc1CCNC(=O)C(=O)NCC(c1cccs1)S(=O)(=O)c1cccs1 (stereo not drawn)	-21.1%
O=C1NC(Nc2ccccc2)=N/C1=C\c1ccc2c(c1)OCO2	81.3%[activator]
Cc1cc(N)c2ccccc2[n+]1CCCCCCCCCC[n+]1c(C)cc(N)c2ccccc21	46.4%[activator]
COc1ccc(CC(=O)N[C@H](C)c2onc(C)c2C(=O)O)cc1	-5.9%[39.2 µM]
COc1ccc(CCNS(=O)(=O)c2ccc(N3CCCCS3(=O)=O)cc2)cc1OC	-10.2%
Fc1ccc(C(c2nnc(-c3ccccc3)o2)N2CCN(c3cccc(Cl)c3)CC2)cc1 (stereo not drawn)	51.9%[activator]
COC(=O)c1cccc(-c2noc(-c3ccccc3F)n2)c1	-4.3%
Cc1nc(Cn2ccnc2-c2cn(C3CCNCC3)nn2)cs1	i
Cc1ccc(-c2nccc(=O)n2CC(=O)NCCc2ccccc2)cc1	i
COc1ccc(-c2no[n+]([O-])c2C#N)cc1	i
CSc1ncc(Cl)c(C(=O)N(Cc2ccc(N(C)C)cc2)Cc2ccco2)n1	-11.2%
CC1=CC(=O)CC(C)(C)C1CO[C@@H]1O[C@H](CO)[C@@H](O)[C@H](O)[C@H]1O (stereo partly drawn)	?
COc1cccc(-c2nnnn2[C@H]2CO[C@H]3[C@@H]2OC[C@@H]3NC(=O)C2CCCCC2)c1	18.9%[39.2 µM]
CCCSc1ccc2nc(NC(=O)OC)[nH]c2c1	23.1%
C/C=C(\C)C(=O)OC1CC2C(C)(C)OC(=O)CC(OC(C)=O)C2(C)C2CC(OC(=O)C(C)C)C3(C)C(c4ccoc4)CC4OC43C12C (stereo not drawn)	-3.2%[10 µM]
CN(C(=O)CC(c1ccccc1)c1ccc(Cl)cc1)C1CCOCC1 (stereo not drawn)	i
COc1ccc(N2Cc3c(NCCc4ccccc4F)ncnc3N(C)CC2=O)cc1	i
CC(C)C(=O)N1CCn2c(nnc2C2CCN(Cc3cc(Cl)ccc3F)C2)C1 (stereo not drawn)	-4.7%
CC(C)(C)C(=O)NCCNC(=O)c1cccc(-c2ccc(C(F)(F)F)cc2)c1	-3.1%
Cc1ccc(C)c(CN2C(=O)c3ccccc3S(=O)(=O)c3ccc(C(=O)N(C)C4CCCCC4)cc32)c1	-5.3%
Cc1cc(NC(=O)Nc2nnc(C3CCCCC3)s2)ccc1Br	-0.3%
COc1cc([C@H]2OC[C@]3(OC(C)=O)[C@@H](c4ccc(O[C@@H]5O[C@H](CO)[C@@H](O)[C@H](O)[C@H]5O)c(OC)c4)OC[C@H]23)ccc1O	-9.6%[10 µM]
O=C1CCCC2=C1C1(CCCC1)N=C(Nc1nc3cc4ccccc4cc3o1)N2	3.4%
Cc1ncsc1CN1CCC2(CC1)CC(CC(=O)NCc1ccncc1)CCO2 (stereo not drawn)	0.0%
Cc1cc(NC(=O)CCS(=O)(=O)c2cc(Br)cc3c2N(C(=O)C2CC2)CC3)ccc1Br	-17.2%

Going on with the list.
SMILES	nsP2pro inh
Cc1ccc2[nH]c(=O)c(CN3CCCN(c4ccncc4)CC3)cc2c1	-7.2%
O=C1OCCN1/N=C/c1ccc([N+](=O)[O-])o1	?
CCCS(=O)(=O)NC[C@H]1C[C@@H]2CCN1C[C@@H]2c1cc(C(CC)CC)nc(-c2ccncc2)n1	-12.3%
C=C1[C@H](OC(C)=O)[C@H]2[C@@H](OC(C)=O)[C@](C)(OC(C)=O)C[C@]2(OC(C)=O)C(=O)[C@H](C)/C=C/C(C)(C)C(=O)[C@H](OC(=O)C(C)CC)[C@H]1OC(C)=O (stereo partly drawn)	-16.6%[10 µM]
CS(=O)(=O)c1cccc(CNc2nc(Nc3ccc4c(c3)CCC(=O)N4)ncc2C(F)(F)F)c1	-0.5%
CCc1cccc(NC(=O)c2ccc3c(=O)n4nc(Nc5ccccc5OC)sc4nc3c2)c1	-13.8%
C#CCOc1cc(C2=Nn3c(nnc3-c3ccc(OCC(C)=O)cc3)SC2)ccc1OC	-0.6%
Cc1cccc(C(=O)NNc2ncnc3c2cnn3-c2ccc(C)cc2C)c1	-10.7%
CN(C)CC(O)c1cc2n(n1)CCCN(C(=O)c1cccn1C1CC1)C2 (stereo not drawn)	0.0%
COc1ccc(CCNC(=O)CCc2c(C)nc3cc(-c4ccccc4OC)nn3c2C)c(OC)c1	-4.8%
CCCCN(C)C(=O)Cn1nc(-c2ccc(C(C)(C)C)cc2)ccc1=O	-5.9%
C[S+](=O)([O-])c1ccc(-c2cc(C(=O)N3CCOCC3)nn3cccc23)cc1	0.7%
C/C=C/c1ccc(OC)cc1	-6.6%
Clc1ccc(-c2csc(NN=C3CCCC3)n2)cc1	27.5%
NC(=O)[C@H](Cc1ccccc1)NC(=O)[C@H](CCCN=C(N)N)NC(=O)C12CC3CC(CC(C3)C1)C2	-9.2%[5.1 µM]
CC(C)NC(=O)C1CCc2nnc(C(C)(C)C)n21 (stereo not drawn)	-13.2%[39.2 µM]
C=C1C(OC(C)=O)CCC2(C)CCC(C(C)(C)O)CC12 (stereo not drawn)	?
COCCn1c(C)cnc1CCNS(=O)(=O)c1c(C)noc1C	?
CCOc1ccccc1-c1nnc2n1N=C(c1cccc(OC)c1)CS2	i
COc1ccccc1NC(=O)N1CCN2C(=O)NC[C@H]2C1	-1.6%[39.2 µM]
COc1cc2c(cc1OC)CN(CCc1ccc(NC(=O)c3cc(OC)c(OC)cc3NC(=O)c3cnc4ccccc4c3)cc1)CC2	16.7%
COc1ccc(NC(=O)CCc2nnc3n(Cc4ccc(C)cc4)c(=O)c4ccccc4n23)cc1	-10.7%
Cc1ccc(-c2cc(O)c3c(c2)CNCCO3)cc1	-7.1%
CCCS(=O)(=O)N1CCC(c2noc(-c3cccnc3)n2)C1 (stereo not drawn)	i
CCOc1ccc(NC(=O)c2c(NCc3ccc(C)o3)sc3c2CCCCC3)cc1	?

An excerpt from the list above:
SMILES	nsP2pro inh
COc1cc2c(cc1OC)CN(CCc1ccc(NC(=O)c3cc(OC)c(OC)cc3NC(=O)c3cnc4ccccc4c3)cc1)CC2	16.7%
COc1ccc(NC(=O)CCc2nnc3n(Cc4ccc(C)cc4)c(=O)c4ccccc4n23)cc1	-10.7%
Cc1ccc(-c2cc(O)c3c(c2)CNCCO3)cc1	-7.1%
CCCS(=O)(=O)N1CCC(c2noc(-c3cccnc3)n2)C1 (stereo not drawn)	i
CCOc1ccc(NC(=O)c2c(NCc3ccc(C)o3)sc3c2CCCCC3)cc1	?

(listing goes on)
SMILES	nsP2pro inh
O=C(NCCc1ccccc1)c1ccc2c(c1)CCN2S(=O)(=O)c1ccc(Br)cc1	-5.2%
Cc1cccc(NC(=O)C(=O)NCC(c2ccc3c(c2)OCO3)N2CCN(c3ccccc3)CC2)c1 (stereo not drawn)	-13.9%
C/C=C(\C)C(=O)OC1C(C)C2(O)C(C=C(CO)CC3(O)C(=O)C(C)=CC32)C2C(C)(C)C12OC(=O)C(C)C (stereo not drawn)	-8.5%[10 µM]
Cc1cccc(C(=O)Nc2nnc(S(=O)(=O)N3CCCc4ccccc43)s2)c1	38.3%[activator]
O=C(NCCCN1CCN(c2ccccc2F)CC1)c1ccc2nc(Cc3ccccc3)oc2c1	-30.8%
CC(C)NC(=O)N1CC2ON=C(C(=O)N3CCOCC3)C2C1 (stereo not drawn)	-11.8%
Cc1cccc(NC(=O)CSc2nc(-c3ccco3)nc3cc(=O)[nH]n23)c1	6.8%
O=C1CCCC2CC(Nc3nc4ccccc4o3)CC(c3ccccc3)C12 (stereo not drawn)	-5.5%
COc1ccc(CNC(=O)CC2N=C3c4ccccc4N=C(SCC(=O)Nc4ccc(N(C)C)cc4)N3C2=O)cc1 (stereo not drawn)	?
CC1(C)CC[C@]2(C(=O)O[C@@H]3O[C@H](CO)[C@@H](O)[C@H](O)[C@H]3O)CC[C@]3(C)C(=CCC4[C@@]5(C)CC[C@H](O[C@@H]6O[C@H](C(=O)O)[C@@H](O)[C@H](O[C@@H]7O[C@H](CO)[C@H](O)[C@H](O)[C@H]7O)[C@H]6O)C(C)(C)C5CC[C@]43C)C2C1 (stereo partly drawn)	-1.4%[5.1 µM]
COc1ccc(C2Nc3ccccc3C(=O)N2Cc2ccco2)cc1COc1c(C(C)C)cccc1C(C)C (stereo not drawn)	i
COc1ccccc1CCNC(=O)C(=O)NCC(c1cccs1)S(=O)(=O)c1ccc(F)cc1 (stereo not drawn)	-12.7%
O=C(Nc1ccc2ccccc2c1)Nc1nnc(-c2ccc(F)cc2)s1	-1.8%
Cc1cc(C)c(S(=O)(=O)N2CCN(Cc3ccc4c(c3)OCO4)CC2)cc1C	-28.4%
O=C(CNC(=O)c1ccncc1)OC(C(=O)Nc1cc(C(F)(F)F)ccc1Cl)c1ccccc1 (stereo not drawn)	-9.5%
CN(C(=O)CSc1nc2ncccc2o1)c1ccc(F)cc1	-5.9%
CC1=CC2/C=C(\C)CCC(O)C(=O)C(O)CC(=O)C23C(=O)NC(CC(C)C)C3C1C (stereo not drawn)	20.9%[10 µM]
CS(=O)(=O)OCC(O)C(O)COS(C)(=O)=O (stereo not drawn)	-2.3%
CCn1c(=O)c2cc(C(=O)NC3CCCCCC3)sc2c2ccccc21	-11.3%
O=C1CCc2cc(S(=O)(=O)Nc3cccc(Br)c3)ccc2N1	0.4%
COC1CC(OC2CCC3(C=O)C(CCC4C3CCC3(C)C(C5=CC(=O)OC5)CCC43O)C2)OC(C)C1O (stereo not drawn)	106.1%[activator][10 µM]
CCc1ccc(NC(=O)Cn2nc3n(c2=O)CCCC3)cc1	-5.8%
O=C(CSc1nc2c([nH]c3ccccc32)c(=O)n1-c1ccc(F)cc1)N1CCCCCC1	-22.2%
O=C1Cc2c(-c3cc4ccccc4o3)n[nH]c2CN1Cc1ccccc1	3.4%[39.2 µM]
O=S(=O)(c1ccc2c(c1)OCCO2)N1CCN(S(=O)(=O)c2ccco2)CC1	-10.5%
CCOc1ccccc1CNC(=O)c1ccc2c(c1)sc1nc(-c3ccccc3)cn12	-1.7%
COCCOc1cc(C)c2c(c1C)C[C@H](C(C)C(=O)NCc1cccs1)CC2 (stereo partly drawn)	?
FC(F)(F)c1cccc(N2CCN(C(=S)Nc3ncnc4ccccc34)CC2)c1	4.7%
